2A Renilla: lowers the Renilla signal of an FMDV 2A StopGo reporter. HEK cells with a luciferase reporter of 2A StopGo recoding. Potency, µM (series often up to 57.5 µM), for the others: at the highest dose signal change, negative = less light. 0.32% of 120,000 active; active means well fitted falling curve with a large enough effect; inconclusive means small, poorly fitted or top-dose-only effect; inactive means no such curve, though single readings can be large or run the other way; note: nearly all actives have a fitted effect of over 55% in size; overnight with compound
StopGo FLuc: FMDV 2A StopGo reporter, firefly signal; 0.23% of 120,000 active; HEK cells with a luciferase reporter of 2A StopGo recoding; Potency, µM (doses to about 57.5 µM), inactives show top-dose signal change, negative = less light; active = well fitted falling curve with a large enough effect; inconclusive = small, poorly fitted or top-dose-only effect; inactive = no such curve, though single readings can be large or run the other way; note: nearly all actives have a fitted effect of over 60% in size; overnight with compound
* = called active by the depositor; ? = inconclusive; & = joins results of further samples; [ ] = dose if it differs, or a comment. % is set by controls: 0 for no effect and ±100 for the full control effect; potency is the fitted concentration of half-maximal effect. The list is partial, so the mix of outcomes need not match the whole.

Structure	2A Renilla	StopGo FLuc
CCC1CSC(Nc2cccc(C)c2)=N1 (stereo not given)	21%	204%[activator]
COc1cccc(CNC(=O)c2ccc3nc(N4CCCCC4)sc3c2)c1OC	1%	-3%
COc1cccc(NC(=O)Cn2c(=O)n(Cc3ccc(F)cc3)c(=O)c3sc4ccccc4c32)c1	-15%	?
CCOc1ccc(NC(=O)CN(c2ccccc2OCC)S(=O)(=O)c2ccccc2)cc1	136%[activator]	-15%
O=C(Nc1ccccc1C(=O)OCc1cc(=O)n2ccsc2n1)c1cccc(F)c1	31%[activator]	?
O=C(Cn1cccc1C(=O)c1ccccc1)NCc1ccccc1Cl	0%	82%[activator]
CC(=O)N1CCC(N(C(=O)Nc2ccc(C)c(F)c2)C(C)C)CC1	74%[activator]	186%[activator]
Cc1ccc(Nc2ccc3cc(S(=O)(=O)N4CCC(C)CC4)ccc3n2)c(Cl)c1	-1%	-3%
CC(=O)c1c(C)[nH]c(-c2csc(NCC(C)C)n2)c1C	81%[activator]	45%[activator]
O=C(CSc1ncnc2sc3c(c12)CCCC3)Nc1ccc(Cl)cn1	-12%	-13%
COc1ccc(C(=O)NCC(c2cccnc2)N2CCN(c3ccc(F)cc3)CC2)cc1 (stereo not given)	-31%	?
O=S(=O)(CC1NCc2cc(F)ccc21)NCc1ccccc1 (stereo not given)	32%[activator]	0%

Structure	2A Renilla	StopGo FLuc
COc1cc2c(c(OC)c1OC)-c1ccc(NCCO)c(=O)cc1[C@@H](NC(C)=O)CC2	46%[activator]	31%[activator]
N#CC(C(=O)/C=C/c1ccccc1)C(=O)NC1CCCCC1 (stereo not given)	15%	0%
Cc1cccc(C(=O)NCC(=O)OCc2cc(=O)n3nc(C4CCCCC4)sc3n2)c1	-15%	-15%
CCC(=O)N1c2nc(-c3ccco3)nn2C2(CCCCC2)[C@@H]2CCCC[C@@H]21	17%&-1%	31%&-23%[activator]
O=C(Nc1cccc(O)c1)c1cc(-c2ccccc2F)no1	115%[activator]	119%[activator]
COC(=O)c1cccc(S(=O)(=O)Oc2ccc3c(C)cc(=O)oc3c2C(C)=O)c1	16%	0%
CC(C)C(C)NC(=O)CCC1CCCO1 (stereo not given)	-10%	-6%
CC(C)Oc1cccc(C(=O)Nc2ccc3oc(-c4ccncc4)nc3c2)c1	9%	26%
CNC(C)Cc1ccccc1OC (stereo not given)	-13%	-13%
COc1ccc(F)cc1S(=O)(=O)NCCc1sc2nc(-c3ccc(F)cc3)nn2c1C	73%[activator]	-5%
Cc1ccc(C)c(N2CCN(C(=O)c3cc4cc([N+](=O)[O-])ccc4oc3=O)CC2)c1	7%	17%
CN(C)CCNC(=O)CCCNc1nc(Cl)nc2nc[nH]c12	0%	12%

Some of the entries so far, field by field.
N#CC(C(=O)/C=C/c1ccccc1)C(=O)NC1CCCCC1 (stereo not given)
  2A Renilla = 15%
  StopGo FLuc = 0%

Cc1cccc(C(=O)NCC(=O)OCc2cc(=O)n3nc(C4CCCCC4)sc3n2)c1
  2A Renilla = -15%
  StopGo FLuc = -15%

(continued)
Structure	2A Renilla	StopGo FLuc
COc1cc2ccccc2cc1C(=O)Nc1ccc2oc(-c3cccc(C)c3)nc2c1	2%	73%[activator]
Cc1ccc(C2CC(=O)C3=C(C2)OC(N)=C(C#N)C3c2ccccc2Cl)cc1 (stereo not given)	9%	1%
O=C(O)c1cc(-c2cccnc2)nc2cc(N3CCOCC3)ccc12	3%	14%
COc1ccc(-c2[nH]nc3nc(-c4cc(Br)ccc4OC)cc(C(=O)O)c23)cc1	-8%	-5%
O=C(c1cc2ccccc2[nH]1)N(Cc1cccs1)C1CC1	14%	50%[activator]
COc1ccc(C2CC(=O)Nc3nc(N)sc32)cc1OC (stereo not given)	23%	?
CCOC(=O)c1c(S(=O)(=O)N2CCC(C(=O)NCc3ccc(F)cc3)CC2)c(C)n(C)c1C	3%	-11%
O=C(Nc1cc(C(F)(F)F)ccc1Cl)c1cc(-c2cccs2)nc2ccccc12	-5%	-4%
CC1(C)CC(=O)C(C(C2=C(O)CC(C)(C)CC2=O)c2cc(Cl)cc(Cl)c2O)C(=O)C1 (stereo not given)	?	?
CCN(CC)C(=O)Cn1c(=O)cc(C)c2c(C)nn(-c3cccc(Cl)c3C)c21	9%	-7%
O=C(Cc1cccc(F)c1)NC1CCC(c2ccccc2)CC1 (stereo not given)	2%	59%[activator]
Cc1ccc2c(=O)cc(C(=O)Nc3ccc(S(=O)(=O)Nc4ncccn4)cc3)oc2c1C	-6%	-16%

Complete entries, quoted from the list. Values in the order: 2A Renilla | StopGo FLuc
`COc1ccc(C2CC(=O)Nc3nc(N)sc32)cc1OC` (stereo not given) as listed: 23% | ?
`O=C(CSc1ncnc2sc3c(c12)CCCC3)Nc1ccc(Cl)cn1` as listed: -12% | -13%
`CNC(C)Cc1ccccc1OC` (stereo not given) as listed: -13% | -13%

Remaining list, next part
Structure	2A Renilla	StopGo FLuc
CCCc1ccc(S(=O)(=O)N2CCC(Oc3ccc(-n4cnnn4)cc3)CC2)cc1	30%	-6%
N#CC1=C(N)N(c2cccc(Cl)c2)C2=C(C(=O)CCC2)C1c1cc(CN2CCOCC2)cs1 (stereo not given)	46%[activator]	-14%
Cc1ccc(CNC(=O)CS(=O)(=O)c2cccc3nsnc23)cc1	-2%	10%
Cc1ccc2c(c1)c1c(c(=O)n(-c3cccc(Cl)c3)c(=O)n1CC(N)=O)n2C	-6%	-10%
COc1ccccc1N1CCN(CCCNC(=O)c2nnc(Cc3c(F)cccc3Cl)o2)CC1	-9%	-8%
CCCCNc1nc2c(c(=O)n(C)c(=O)n2C)n1Cc1ccc(Br)cc1	-9%	-3%
COc1ccc(-c2noc(-c3cccc(NC(=O)C4CC(=O)N(c5ccc(OC)cc5)C4)c3)n2)cc1 (stereo not given)	-4%	136%[activator]
CCOc1ccc(S(=O)(=O)N(CC(=O)NCCSc2ccc(C)cc2)c2ccccc2)cc1	-10%	-11%
CCOc1ccc(NC(=O)c2cn3c4c(ccc(Cl)c4c2=O)OC(C)C3)cc1 (stereo not given)	-7%	-13%
CC(C)NC(=O)c1ccc(-n2nc(Sc3ccc(Cl)cc3)ccc2=O)cc1	-7%	6%
CCC(Sc1nc2nccnc2c(=O)n1Cc1ccc(F)cc1)C(=O)NC1CCCCC1 (stereo not given)	7%	-6%
CCOC(=O)NC(O)C(Cl)(Cl)Cl (stereo not given)	1%	-4%

Structure	2A Renilla	StopGo FLuc
N#Cc1cccc(NC(=S)NCCc2ccccc2)c1	119%[activator]	?
CCCn1c2ccc(F)cc2c2nnc(SCCN3CCCCC3)nc21	12%	15%
O=C1CCCC2=C1C(c1ccccc1)c1c([nH]n(-c3ccccc3)c1=O)N2 (stereo not given)	73%[activator]	-5%
Cc1cccc(NC(=O)CC2(C(=O)O)CCCCC2)c1	6%	6%
Cc1cccc(NC(=O)CSc2nc(-c3ccco3)cc(C(F)(F)F)n2)c1C	-1%	12%
CC(=O)N1CCCc2cc(S(=O)(=O)N3CCN(c4cccc(C(F)(F)F)c4)CC3)ccc21	-1%	3%
CCOC(=O)c1ncn2c1CN(C)C(=O)c1c(I)cccc1-2	0%	-14%
CCOc1ccc(CNC(=O)c2cc3oc4ccccc4c3n2C)cc1	?	-18%
C=CCc1ccc(OCCOc2cccc(OC)c2)c(OC)c1	15%	32%[activator]
COCCNC(=O)c1c(NC(=O)c2cc(=O)c3cc(C)cc(C)c3o2)sc2c1CCCC2	-8%	-4%
COc1cc(C(c2c(C)[nH][nH]c2=O)c2c(C)[nH][nH]c2=O)ccc1OCc1ccccc1Cl	-10%	107%[activator]
NCc1ccc(-c2ccc(O)cc2)cc1	23%	35%[activator]

Structure	2A Renilla	StopGo FLuc
Cc1c(NC(=O)C2CCN(S(=O)(=O)Cc3ccccc3)CC2)c(=O)n(-c2ccccc2)n1C	-2%	-4%
CCCCN(CC)CCNC(=O)c1c(C)oc2ncnc(N3CCOCC3)c12	-10%	-19%
CCOc1ccccc1C(=O)Nc1ccc2c(c1)N(C)C(=O)c1ccccc1S2	14%	14%
COc1cccc(-c2nc(SCC(=O)Nc3ccc4c(c3)OCCO4)c(-c3ccc(C)cc3)[nH]2)c1	58%[activator]	-5%
O=C(/C=C/c1cccs1)OC1CCCCC1=O (stereo not given)	6%	79%[activator]
CCOc1ccc(NC(=O)CN2C(C(=O)OC)=C(c3ccccc3)c3cc(Cl)ccc3S2(=O)=O)cc1	16%	17%
CCc1nc2sc(C(C)=O)c(N)c2cc1C	11%	57%[activator]
O=C(COc1ccccc1F)Nc1nc(-c2ccc(S(=O)(=O)N3CCOCC3)cc2)cs1	?	?
CCOc1ccc(CCNC(=O)c2ccc3c(c2)N(Cc2cccc(Cl)c2)C(=O)c2ccccc2S3(=O)=O)cc1OCC	-7%	-14%
CC(C)(C)C(=O)NCCCC(=O)NCC1CC1	-5%	-10%
CCCCCCCCCCOc1ccc(C(=O)OCC(=O)c2ccc(Cl)cc2)cc1	17%	13%
CCOC(=O)C(N)C(=O)OCC	-2%[1.06 µM]	0%

As entered above:
CCc1nc2sc(C(C)=O)c(N)c2cc1C | 2A Renilla = 11%
Cc1c(NC(=O)C2CCN(S(=O)(=O)Cc3ccccc3)CC2)c(=O)n(-c2ccccc2)n1C | StopGo FLuc = -4%

Additional results
Structure	2A Renilla	StopGo FLuc
CC(C)(C)c1coc2cc3o/c(=N/O)c4c(c3cc12)CCC4	-4%	0%
CC(C)c1ccc(CS(=O)(=O)Cc2ccc(C#N)cc2)cc1	-3%	24%
CCCCC(=O)Nc1nnc(S(=O)(=O)N2CCCCCC2)s1	-2%	-3%
Cc1ccccc1C(=O)N1c2ncnn2C2(CCCCC2)[C@@H]2CCCC[C@@H]21	-9%	-17%
CCOc1ccc(Nc2nc(C)c(NC(=O)c3cccc(F)c3)c(Nc3ccc(OCC)cc3)n2)cc1	0%	-17%
Cc1cc(C(=O)OCC(=O)NC(=O)NC(C)(C)C)c2ccccc2n1	-9%	-7%
CC(C)CCNC(=O)c1ccc2c(Cl)c3c(nc2c1)CCCC3	-1%	160%[activator]
CC(C)C(C(=O)O)c1ccc(Cl)cc1 (stereo not given)	-10%	-2%
O=C(Nc1ccccc1C(F)(F)F)c1cccn(Cc2ccccc2)c1=O	3%	-13%
Cc1ccc2nc(-c3ccc(C)s3)c(Nc3ccc4c(c3)OCCO4)n2c1	5%	84%[activator]
O=C(COC(=O)c1c(F)cccc1Cl)c1ccc(C2CCCCC2)cc1	18%	138%[activator]
Cc1[nH]c2ccccc2c1C(=O)N1CCN(S(=O)(=O)c2ccc(F)cc2F)CC1	0%	0%

Structure	2A Renilla	StopGo FLuc
Cc1ccc(C(=O)c2cccc(C(=O)c3ccc(C)cc3)c2)cc1	-4%	6%
COc1cccc(-c2nc3cc(NC(=O)c4cccc([N+](=O)[O-])c4)ccc3o2)c1	-9%	104%[activator]
CCCNC(=S)Nc1cccc(F)c1	137%[activator]	13%
COc1ccc2ccccc2c1CNCCc1c[nH]c2ccccc12	-19%	-12%
OC[C@H]1O[C@@H](n2cnc3c(=S)nc[nH]c32)[C@H](O)[C@@H]1O	-5%	?
COc1ccc(NC(=O)COc2ncnc3ccccc23)cc1Cl	-1%	20%
COc1ccc(/C=C2\Cc3ccccc3C2=O)cc1Br	27%	20%
O=c1c2c(-c3ccc(Cl)cc3)noc2ncn1Cc1ccc(F)cc1Cl	4%	8%
O=C(Cn1nnc(-c2cc(F)ccc2Br)n1)N1CCOCC1	-8%	12%
O=C(/C=C/c1ccccc1Cl)N1CCC(c2nc3ccccc3o2)CC1	6%&-6%	72%&72%[activator]
C=C(C)C[C@@H]1Cc2c(Br)cccc2[C@@H](CC(=C)C)N1	11%	-4%
O=C(O)c1cc(Cl)c(Cl)[nH]1	4%	12%

Structure	2A Renilla	StopGo FLuc
CCc1ccc(/C=C(/C#N)C(=O)Nc2ccc(N3CCOCC3)cc2)cc1	0%	27%
COc1ccc(OC)c(N(C)S(=O)(=O)c2ccc3c(c2)NC(=O)CC(=O)N3)c1	-13%	-16%
Cc1c(NC(=O)c2cc(-c3ccc(Cl)c(Cl)c3)on2)c(=O)n(-c2ccccc2)n1C	-10%&-3%	3%&-4%
O=C(CCS(=O)(=O)c1ccc(Br)cc1)Nc1ccc(Cl)c(C(F)(F)F)c1	-23%	0%
CNC(=O)NC(=O)CN(CCC1CCCCC1)CC(N)=O	7%	6%
Cc1sc2nc(CN3CCCCC3)nc(Sc3nnnn3C3CC3)c2c1C	14%	21%
Cc1cc(C)cc(NC(=O)CSc2nc(=O)n(CCN3CCOCC3)c3c2CCC3)c1	-7%	-14%
Cc1ccc(N(Cc2cccs2)C(=O)c2cccs2)cc1	35%	25%
CCC(C)[C@H](NC(=O)OC(C)(C)C)c1nnc(SC)o1 (stereo not given in full)	9%	2%
Cc1ccc(CN(C)CC(=O)NC(=O)NCc2ccco2)cc1	4%	2%

Of the compounds above, 6 have bromine.
Structure	2A Renilla	StopGo FLuc
COc1ccc(-c2[nH]nc3nc(-c4cc(Br)ccc4OC)cc(C(=O)O)c23)cc1	-8%	-5%
CCCCNc1nc2c(c(=O)n(C)c(=O)n2C)n1Cc1ccc(Br)cc1	-9%	-3%
COc1ccc(/C=C2\Cc3ccccc3C2=O)cc1Br	27%	20%
O=C(Cn1nnc(-c2cc(F)ccc2Br)n1)N1CCOCC1	-8%	12%
C=C(C)C[C@@H]1Cc2c(Br)cccc2[C@@H](CC(=C)C)N1	11%	-4%
O=C(CCS(=O)(=O)c1ccc(Br)cc1)Nc1ccc(Cl)c(C(F)(F)F)c1	-23%	0%

Assay outcomes (PubChem BioAssay)
